Screens as filed in PubChem.
H5N1 antiviral: MDCK cell protection from H5N1 avian flu; cytopathic effect, luminescence, 72 h; hits give high values; no value below 0 was filed and about half of the inactive calls have no number; reference of the scale not given here; inhibition, % at 50 µM; hit rate 0.07% among 96,000; AID 740; in the data active = inhibition above about 25%
Numbers without * were called inactive; i = inactive.

SMILES	H5N1 antiviral
Cc1cccc(NC(=O)CSc2ncnc3nc[nH]c23)c1	1.1
O=C(CSc1nc2ccccc2c(=O)n1-c1ccccc1)N1CCCC1	i
Cc1ccc(OCCNC(=O)c2ccccc2N)cc1	0.4
COc1ccc2[nH]c(=O)c(CN(CCO)C(=O)c3ccccc3F)cc2c1	i
Cn1c(N2CCC(C(N)=O)CC2)nc2c1c(=O)n(Cc1ccc(Cl)cc1)c(=O)n2C	i
COc1ccc(NC(=O)C(CC(C)C)NC(=O)c2ccccc2C)cn1 (stereo unspecified)	i
CCN1CCN(C(c2cccs2)C(C)NC(=O)CC(C)C)CC1 (stereo unspecified)	1.2
COc1cc(C=O)c(Br)cc1OC1CCCC1	i
O=C1CCSc2ccc(Cl)cc2N1Cc1ccccc1	0.2
O=C(O)C1CC(=O)N(c2ccc(OCc3c(F)cccc3Cl)cc2)C1 (stereo unspecified)	i
CCOC(=O)c1sc(=S)n(-c2ccccc2OC)c1N	i
Cc1nc2ccccn2c1/C(O)=C1\C(=O)C(=O)N(CCCn2ccnc2)C1c1ccncc1 (stereo unspecified)	i
Cc1nnc(NC(=O)c2ccccc2Br)s1	1.2
CCCCOc1ccc(CSC(CC(=O)O)C(=O)O)cc1 (stereo unspecified)	i
Nc1ccc(N2CCN(C(=O)c3cccs3)CC2)cc1	i
CCOC(=O)c1[nH]c(C)c(/C(O)=C2\C(=O)C(=O)N(CCCn3ccnc3)C2c2ccncc2)c1C (stereo unspecified)	i
COCCN(CCOC)Cc1c(O)ccc2c3c(c(=O)oc12)CCC3	0.1
CCCCOc1ccc(S(=O)(=O)N2CCCCCC2)cc1	0.2
COc1cc(/C=N/NC(=O)CSCc2ccc([N+](=O)[O-])cc2)cc(OC)c1OC	1.4
CC(C)NC(=O)c1nc2ccccc2s1	2.3
CCOc1ccc(OCCCN(C)C)cc1	0.1
O=C1c2ccccc2C(Nc2ccc3c(c2)OCCO3)N1c1ccccn1 (stereo unspecified)	0.9
CCCCOc1ccc(CSC(=N)N)cc1[N+](=O)[O-]	i
Cc1c(C(=O)NCCC2=CCCCC2)cccc1[N+](=O)[O-]	i
CC(C)(C)n1nnnc1C(c1cccs1)N1CCCc2ccccc21 (stereo unspecified)	3.9
CCOC(=O)c1sc2nc(CC(=O)OC)nc(NCC(=O)OC)c2c1C	0.4
Cn1c(=O)n(C)c2cc(/C=N/NC(=O)c3ccc(Cl)cc3Cl)ccc21	i
Cc1ccc(NC(=O)CCC(=O)OCC(=O)c2ccc(Oc3ccc([N+](=O)[O-])cc3)cc2)cc1C	i
COC(=O)c1ccccc1NC(=O)c1ccc(COc2cc(C)cc(C)c2)o1	i
Cc1nnc(NC(=O)CSc2cn(Cc3ccccc3)c3ccccc23)s1	0.9
COC(=O)CC1=C(C(=O)OC)C(c2ccncc2)C(C#N)=C(N)O1 (stereo unspecified)	i
c1cc(C2OCCN2CC2COC3(CCCC3)O2)ccn1 (stereo unspecified)	i
COc1ccc(C(CC(=O)O)NC(C)=O)cc1OC (stereo unspecified)	0.1
CC1=CC(C)(C)N(S(=O)(=O)c2ccc(C)cc2)c2ccccc21	14
C=CCOc1ccc(Br)cc1/C=N/O	i
COCC(C)NC(=O)C1CC(c2cccc(Br)c2)=NO1 (stereo unspecified)	i
Cn1c(=O)c(C(=O)CSc2nnc(Nc3ccccc3)s2)c(N)n(Cc2ccccc2)c1=O	i
COc1ccc2sc(N3C(=O)C4CC=C(C)CC4C3=O)nc2c1 (stereo unspecified)	1.2
CCc1c(C(=O)NC2CCCC2)csc1C	i
N#Cc1cccc(-c2nnc(SCc3ccccc3C#N)o2)c1	1.0
COC(=O)CN1C2(C#N)CCCCC2CC2CCCCC21C#N (stereo unspecified)	0.2
Cc1ccc(N2CCN(c3ccc(C)cc3)C2c2ccccn2)cc1	i
Cc1cccc(C)c1OCC(O)CNS(=O)(=O)c1ccccc1C(=O)N1CCOCC1 (stereo unspecified)	i
O=C1CCC(=O)N1c1nc2nc(-c3ccccc3)cc(=O)n2[nH]1	i
CC(OC(=O)c1cccs1)C(=O)NCc1ccco1 (stereo unspecified)	4.0
COCCOC(=O)c1[nH]c2c(c1C)C(=O)CC(c1cc(OC)ccc1OC)C2 (stereo unspecified)	i
CN1CCN(C(=O)c2ccc(S(=O)(=O)c3ccc(Br)cc3)cc2)CC1	i
Cc1cc(C(=O)Nc2c(C)n(C)n(-c3ccccc3)c2=O)on1	0.1
Cc1cc(C)c2c(=O)c3c(oc2c1)C(=O)N(CCO)C3c1cccc(O)c1 (stereo unspecified)	1.1
CS(=O)(=O)N1CCN(c2ccccc2F)CC1	0.1
Cc1ccc(-c2nc(CS(=O)(=O)CC(=O)N3CC(C)CC(C)C3)c(C)o2)cc1 (stereo unspecified)	0.5
CC(=O)N1CCCc2cc(S(=O)(=O)N3CCc4ccccc4C3)ccc21	1.3
Cn1c(CC(=O)Nc2ccc(Cl)c(Cl)c2)nnc1SCC(=O)N1CCN(c2ccccc2)CC1	2.9
COc1ccc(NS(=O)(=O)c2ccc(Oc3ncccn3)cc2)cc1	0.2
CCOC(=O)N1CCc2c(sc(NC(=O)c3ccc(S(=O)(=O)N4CCCC4)cc3)c2C#N)C1	i
CC1=C(C(=O)Nc2ccccc2)C(c2ccco2)C(C#N)=C(SCC(N)=O)N1 (stereo unspecified)	0.1
Cc1nc2c(C)cccn2c1/C(O)=C1\C(=O)C(=O)N(CCN2CCOCC2)C1c1ccncc1 (stereo unspecified)	0.6
CC(NC(=O)c1cccnc1)C(c1cccs1)N1CCN(C)CC1 (stereo unspecified)	1.6
CC(C)(C)C(=O)N1CCc2cc(-c3csc(N)n3)ccc21	i
N#Cc1ccc2ccn(CC(=O)NCc3ccccc3)c2c1	i

18 entries from above, in markdown:
| Molecule | H5N1 antiviral |
| --- | --- |
| N#Cc1cccc(-c2nnc(SCc3ccccc3C#N)o2)c1 | 1.0 |
| COC(=O)CN1C2(C#N)CCCCC2CC2CCCCC21C#N (stereo unspecified) | 0.2 |
| Cc1ccc(N2CCN(c3ccc(C)cc3)C2c2ccccn2)cc1 | i |
| Cc1cccc(C)c1OCC(O)CNS(=O)(=O)c1ccccc1C(=O)N1CCOCC1 (stereo unspecified) | i |
| O=C1CCC(=O)N1c1nc2nc(-c3ccccc3)cc(=O)n2[nH]1 | i |
| CC(OC(=O)c1cccs1)C(=O)NCc1ccco1 (stereo unspecified) | 4.0 |
| COCCOC(=O)c1[nH]c2c(c1C)C(=O)CC(c1cc(OC)ccc1OC)C2 (stereo unspecified) | i |
| CN1CCN(C(=O)c2ccc(S(=O)(=O)c3ccc(Br)cc3)cc2)CC1 | i |
| Cc1cc(C(=O)Nc2c(C)n(C)n(-c3ccccc3)c2=O)on1 | 0.1 |
| Cc1cc(C)c2c(=O)c3c(oc2c1)C(=O)N(CCO)C3c1cccc(O)c1 (stereo unspecified) | 1.1 |
| CS(=O)(=O)N1CCN(c2ccccc2F)CC1 | 0.1 |
| Cc1ccc(-c2nc(CS(=O)(=O)CC(=O)N3CC(C)CC(C)C3)c(C)o2)cc1 (stereo unspecified) | 0.5 |
| CC(=O)N1CCCc2cc(S(=O)(=O)N3CCc4ccccc4C3)ccc21 | 1.3 |
| Cn1c(CC(=O)Nc2ccc(Cl)c(Cl)c2)nnc1SCC(=O)N1CCN(c2ccccc2)CC1 | 2.9 |
| COc1ccc(NS(=O)(=O)c2ccc(Oc3ncccn3)cc2)cc1 | 0.2 |
| CCOC(=O)N1CCc2c(sc(NC(=O)c3ccc(S(=O)(=O)N4CCCC4)cc3)c2C#N)C1 | i |
| CC1=C(C(=O)Nc2ccccc2)C(c2ccco2)C(C#N)=C(SCC(N)=O)N1 (stereo unspecified) | 0.1 |
| Cc1nc2c(C)cccn2c1/C(O)=C1\C(=O)C(=O)N(CCN2CCOCC2)C1c1ccncc1 (stereo unspecified) | 0.6 |

A stretch from further up:
SMILES	H5N1 antiviral
CC(C)(C)C(=O)N1CCc2cc(-c3csc(N)n3)ccc21	i
N#Cc1ccc2ccn(CC(=O)NCc3ccccc3)c2c1	i

(further entries)
SMILES	H5N1 antiviral
CCOC(=O)c1[nH]c(C)c(C(=O)NC(C)(C)C)c1C	i
CCOc1ccc2[nH]c(=O)c(CN(CCO)C(c3nnnn3C3CCCCC3)C(C)C)cc2c1 (stereo unspecified)	8.6
CC(C)NC(=O)c1cc(-c2cccs2)on1	i
O=C(c1c[nH]c2ccccc12)C(O)C(c1ccccc1)N1CCOCC1 (stereo unspecified)	i
O=C(CC1CCCCC1)NCc1ccccn1	0.4
Cc1cc(C)c2cc(C#N)c(SCC(=O)NCC3CCCO3)nc2c1 (stereo unspecified)	1.1
CCn1c(SCC(=O)Nc2ccc(C(C)=O)cc2)nc2nc3c(cc2c1=O)CCCC3	0.1
Cc1occc1C(=O)NCc1ccccc1F	0.2
CCS(=O)(=O)Nc1cc(C(=O)OC)ccc1C(=O)OC	0.5
CCOC(=O)c1c(C)oc2ccc(OC(=O)N3CCOCC3)cc12	i
CCCCNC(=S)NC(=O)c1ccc(Cl)cc1Cl	i
CC(=O)N1N=C(c2ccco2)CC1c1cccs1 (stereo unspecified)	1.7
CCOc1ccc(-n2c(SCC(=O)Nc3ccc4c(c3)OCO4)nc3ccccc3c2=O)cc1	i
O=C(Cn1cnc2c(cnn2-c2ccc(Cl)cc2)c1=O)NC1CCCCC1	i
CCOC(=O)c1c(NC(=O)c2c(-c3ccccc3)noc2C)sc(C)c1-c1ccccc1	1.9
CCOc1ccccc1NC(=O)C1CCCCN1S(=O)(=O)c1ccc(F)cc1 (stereo unspecified)	0.9
OC(COC1CCCCC1)CN1CCN(c2ccccc2)CC1 (stereo unspecified)	0.5
COc1ccc(NC(=O)CSc2nc(O)c(Cc3ccccc3)c(=O)[nH]2)cc1	i
Cc1ccc(OCC(=O)NCCN2CCOCC2)cc1C	i
COc1ccc(NC(=O)N2CCCC(c3nc(-c4ccc(C(C)C)cc4)no3)C2)cc1 (stereo unspecified)	i
Cn1c(C(=O)NCCN2CCOCC2)cc2sccc21	i
CSc1ccccc1C(=O)Nc1cccc(C(C)=O)c1	0.0
COc1ccccc1CNC(=O)CN(c1ccc(C)cc1)S(=O)(=O)c1c(C)n[nH]c1C	i
CS(=O)(=O)N1CCCC(C(=O)NCCN2CCC(Cc3ccccc3)CC2)C1 (stereo unspecified)	0.5
Cc1ccc(NC(=O)CC2C(=O)NC3CCCCC3N2C(=O)c2ccc(F)cc2)cc1C (stereo unspecified)	i
CCCC(=O)Nc1ccc(C(=O)/C=C/c2ccc(SC)cc2)cc1	i
CCOc1ccccc1CNC(=O)c1cc2oc3ccccc3c2n1CC	i
C=CCc1ccccc1OCC(O)CN1CCN(c2ccc(C)cc2)CC1 (stereo unspecified)	i
O=C(COC(=O)C1COc2ccccc2O1)NC(=O)NC1CCCC1 (stereo unspecified)	i
O=C1CCC([N+](=O)[O-])C(c2ccc(Cl)cc2)N1 (stereo unspecified)	1.6
CCCCN=Cc1sc2ccc(OCC)cc2c1O	i
COc1ccc(NC(=O)CS(=O)CC(=O)Nc2cc(Cl)ccc2OC)cc1 (stereo unspecified)	i
O=C(c1ccc(-c2ccccc2)cc1)N1CCN(C(=O)c2ccco2)CC1	i
c1ccc(CSCc2cn3ccsc3n2)cc1	0.8
COc1ccc(CC(=O)Nc2cccc(-c3csc(C)n3)c2)cc1	2.2
O=C(NCc1ccc2c(c1)OCO2)c1cccc2c1C(=O)N(C1CCCCC1)C2	i
CCCc1n[nH]c2c1C(=O)CC(C)(C)C2	i
COC(=O)Cn1cc(/C=N/NC(=O)c2ccc(C#N)cc2F)c2ccccc21	4.2
Cc1ccc(S(=O)(=O)n2nc(OC(=O)c3c(-c4ccccc4Cl)noc3C)cc2N)cc1	i
COc1ccc(C2OC(=O)CC2C(=O)NC(C)C)cc1 (stereo unspecified)	0.4
CC(C)Nc1nc(NC(C)C)nc(N(C)C(N)=O)n1	i
COc1ccccc1-c1c(C)nn2c(N3CCC(C(N)=O)CC3)cc(C)nc12	2.7
O=C(c1ccc(F)cc1)c1cn[nH]c1-c1ccccc1O	i
Cc1nnc(NC(=O)c2ccccc2C(=O)O)s1	i
CCC1(C)Cc2c(sc3[nH]c(=S)n(Cc4ccccc4)c(=O)c23)CO1 (stereo unspecified)	7.5
CCOc1ccc(N2C(=O)CC(NCCc3ccncc3)C2=O)cc1 (stereo unspecified)	i
CCn1c(SCC(=O)NC2CCCC2)nnc1-c1c[nH]c2ccccc12	1.8
COC(=O)Cc1[nH]nc2c1C1(C(=O)N(Cc3ccc(Cl)cc3)c3ccccc31)C(C#N)=C(N)O2 (stereo unspecified)	i
Cc1ccc(CC(NC(=O)c2ccccc2)C(=O)N2CCCC2C(=O)O)cc1 (stereo unspecified)	0.6
Cc1cc(N2C(=O)C3C4C=CC(C4)C3C2=O)ccc1Br (stereo unspecified)	3.6
CC1CN(C2CCCCC2)c2nc3c(c(=O)n(C)c(=O)n3C)n2C1 (stereo unspecified)	0.3
N#Cc1c(C(F)(F)F)cc(-c2ccccc2)nc1SCC(=O)Nc1sc2c(c1C#N)CCC2	i
Nc1cc(=O)[nH]c(=O)n1Cc1ccco1	0.5
CN1C(=O)CC(N2CCN(C(c3ccccc3)c3ccccc3)CC2)C1=O (stereo unspecified)	i
CCOC(=O)N1CCN(Cc2nc3c(c(=O)n(C)c(=O)n3C)n2Cc2ccccc2C)CC1	1.1
O=C(CNC(=O)c1cccs1)NC1=NCCS1	1.3
COc1ccc(Cl)cc1NC(=O)COC(=O)/C=C/c1c(C)nn(C2CCS(=O)(=O)C2)c1Cl (stereo unspecified)	0.4
Cc1ccc(N2CC(C(=O)N/N=C/c3cccc([N+](=O)[O-])c3)CC2=O)cc1 (stereo unspecified)	i
CC(=O)c1ccc(OC(NC(=O)Cc2ccccc2)C(Cl)(Cl)Cl)cc1 (stereo unspecified)	i
CCN(CC)Cc1c(-c2ccccc2)[nH]c2ccc(C)cc2c1=O	0.5

(listing goes on)
SMILES	H5N1 antiviral
O=C(Nc1nc2ccccc2[nH]1)C12CC3CC(CC(C3)C1)C2	1.5
O=C(CN(CCc1ccccc1)C(=O)CNS(=O)(=O)c1ccccc1)NCC1CCCO1 (stereo unspecified)	i
CCOC(=O)c1cc2c(=O)n3ccccc3nc2n(CCOC)c1=NC(=O)c1ccncc1	0.1
COc1ccc(C2(C(=O)Nc3cc(C)on3)CCOCC2)cc1	i
N#Cc1ccc(OCc2nnc(SCC(=O)N3CCCc4ccccc43)n2-c2ccccc2)cc1	i
O=C(Nc1ccc(S(=O)(=O)NCc2ccco2)cc1)c1ccc2ccccc2n1	i

Not all compounds are listed, so the mix of outcomes need not match the whole.
